Compound activity as filed in PubChem.
VDR inhibitor = Inhibitors of the vitamin D receptor (VDR): qHTS; Vitamin D3 receptor (Homo sapiens), P11473; VDR-SRC2-3 peptide fluorescence polarization, 2 h; Potency, µM, for the others: max response, negative = inhibition, hits mostly inhibitors; 400,000 compounds, 0.93% hits; AID 504847, 2011; active = well fitted inhibition curve with a large enough effect; inconclusive = small, poorly fitted or top-dose-only effect, or another doubt; inactive = no such curve, though single readings can be large or run the other way; note: series mostly up to about 120 µM
Target sequence (P11473 whole entry, looked up): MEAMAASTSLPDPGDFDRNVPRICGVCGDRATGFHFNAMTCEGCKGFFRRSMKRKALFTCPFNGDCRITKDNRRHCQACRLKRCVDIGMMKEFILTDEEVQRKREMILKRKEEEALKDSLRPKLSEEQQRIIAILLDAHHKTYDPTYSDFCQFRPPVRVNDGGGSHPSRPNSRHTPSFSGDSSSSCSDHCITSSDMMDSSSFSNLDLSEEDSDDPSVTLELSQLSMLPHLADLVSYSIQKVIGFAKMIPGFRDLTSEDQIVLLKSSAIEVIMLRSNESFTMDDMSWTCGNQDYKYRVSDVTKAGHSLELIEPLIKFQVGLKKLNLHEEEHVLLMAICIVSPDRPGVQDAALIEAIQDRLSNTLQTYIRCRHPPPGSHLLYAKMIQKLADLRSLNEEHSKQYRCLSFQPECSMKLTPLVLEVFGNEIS
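Compounds are added to VDR with labelled SRC2-3 coactivator peptide and held 2 h at room temperature. Inhibition of the VDR–peptide interaction is then read as a change in fluorescence polarization.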
An asterisk follows results filed as active; ? = inconclusive; & = joins results of further samples; [ ] = remark or other dose. % is set by controls: 0 for no effect and ±100 for the full control effect; potency is the fitted concentration of half-maximal effect. A portion of the library, so the mix of outcomes need not match the whole.

mol,VDR inhibitor
CSc1ccc(/C=C(/NC(=O)c2ccco2)C(=O)N2CCOCC2)cc1,-7%
O=C1NC(c2ccccc2)=C(c2ccc3ccccc3n2)C(c2ccc(F)cc2)N1 (centres undefined),-9%
CCCCSc1nnc(-c2ccc(NC(C)=O)cc2)n1C,-5%
Cc1c(Cl)cccc1NC(=O)CSc1ccc(-c2cccnc2)nn1,-12%
Nc1c(C(=O)N2CCOCC2)sc2nc3c(cc12)CCCC3,0%
O=C(CSC1=NS(=O)(=O)c2cc(F)ccc2N1)NCc1ccc(F)cc1,-1%
CCOC(=O)C1C(=O)CC(C)(O)C(C(=O)OCC)C1c1ccc(OC)cc1 (centres undefined),9%
COc1cccc(Nc2ncc3ncc(=O)n(C)c3n2)c1,1%
COc1cc(Cl)c(C)cc1NC(=O)COC(=O)c1ccc(CN2CCCC2=O)cc1,-9%
O=C(N1CCCCC1)N1CCN(S(=O)(=O)c2cccc([N+](=O)[O-])c2)CC1,-6%
CCn1c2ccccc2c2nnc(SCC(=O)Nc3ncccn3)nc21,11%
Cc1cc(C)cc(NC(=O)CCCc2nc(-c3ccccc3Cl)no2)c1,11%
c1ccc(-n2ncc3c(N4CCCCC4)ncnc32)cc1,-26%
C/C(=N\NC(=O)C1COc2ccccc2O1)c1cc2ccccc2o1 (centres undefined),5%
CCOC(=O)C1=C[C@]2(CC)CCCN3CCc4c(n1c1ccccc41)[C@@H]32,11%&-19%&4%
CCC1CCCCN1C(=O)CSc1nc2c([nH]c3ccccc32)c(=O)n1-c1ccc(OC)cc1 (centres undefined),4%
CCOC(=O)c1c(C)[nH]c(C(=O)NCc2ccccn2)c1C,0%
COc1ccccc1/C=C/c1nc(S(=O)(=O)c2ccccc2)c(N(C)C)o1,?
Cc1ccccc1OCC(=O)Nc1ccc2c(c1)ncn2C,15%
CCC(Sc1ncccn1)C(=O)Nc1cc(C)on1 (centres undefined),14%
CC[C@@]12C(=O)N(c3ccc(OC)cc3)C(=O)N1[C@H](c1cccc(C)c1)[C@@H]1C(=O)N(Cc3ccccc3)C(=O)[C@@H]12,-15%
CCN1CCN(CC(=O)N2c3ccccc3CC2C)CC1 (centres undefined),-3%
CCn1c(SCc2ccc(C(=O)OC)o2)nnc1-c1c[nH]c2ccccc12,15%
COC(=O)c1ccccc1OC(=O)c1cc[n+]([O-])cc1,14%
CC1C(=O)Nc2ccccc2N1C(=O)c1cccc(C(F)(F)F)c1 (centres undefined),-9%
Cc1ccc(-c2csc(NC(=O)c3cnccn3)n2)cc1C,3%
CSc1ncccc1C(=O)OCC(=O)N1CCN(S(=O)(=O)c2ccc(C)cc2C)CC1,14%
Cc1nc2ccccc2c(=O)n1/N=C/c1ccc(F)cc1,8%
Cc1ccc(C(c2sc3nc(C)nn3c2O)N2CCN(CCO)CC2)cc1 (centres undefined),-11%
O=C(CCC(=O)c1cccs1)c1cccs1,5%
CCc1ccc(NC(=O)Cn2ccn(-c3cccc(Cl)c3)c(=O)c2=O)cc1,-12%&0%
CCN1C(=O)/C(=C/C=C2\N(CC)c3cc(S(=O)(=O)N(C)C)ccc3N2c2ccccc2)SC1=S,-13%
Cc1ccc(CN(C)C(=O)c2cccc(S(=O)(=O)N3CCc4ccccc4C3)c2)o1,-28%
CC(=O)Nc1ccc(/C=N/NC(=O)CNS(=O)(=O)c2ccccc2)cc1,-1%
CC(C)c1nc(SCC(=O)N2CCCCCC2)c2c(=O)n(C)c(=O)n(C)c2n1,-1%
CC(=O)c1ccc(Cl)c(Cl)c1Cl,2%
O=C(CSc1nnc(-c2ccc(C(F)(F)F)cn2)o1)Nc1cccc(Cl)c1,16%
COc1ccc(CNC(=O)C[C@H]2C[C@H](C(=O)N3CCCCC3)[C@@]3(CCc4ccccc4)c4[nH]c5cc(-c6ccco6)ccc5c4CCN3C2=O)cc1OC,89µM*
O=C(NCC1CCCN(C(=O)Cc2ccccc2Cl)C1)c1ccc(F)cc1 (centres undefined),16%
COc1ccc(N2CCN(C(=O)c3ccccc3NC(=O)c3ccccc3)CC2)cc1,15%
COc1cc(C(=O)NC2CCN(Cc3ccccc3)CC2)cc(Cl)c1OC,18%
O=C(CSc1ccc(-c2ccccc2)nn1)N1CCN(c2ccccc2)CC1,-2%
CN(C)C(=O)CCc1ccc2c3c([nH]c2c1)[C@]1(CCC2CCCC2)[C@@H](C(=O)N2CCOCC2)C[C@H](CC(=O)NC(C)(C)C)C(=O)N1CC3,-23%
COc1ccccc1NS(=O)(=O)c1ccc(Br)s1,-2%
CCC1(CC)NC(=O)N(CC(=O)N2CCN(c3ccccc3F)CC2)C1=O,10%
Cc1cc(=O)oc2c(C)c(OC(C)C(=O)NC(Cc3c[nH]c4ccc(O)cc34)C(=O)O)ccc12 (centres undefined),-24%
COc1cccc(CNC(=O)CCS(=O)(=O)Cc2ccc(C)cc2)c1,2%
CN(CC(CC(=O)Nc1nncs1)c1ccccc1)S(=O)(=O)c1ccc(Br)cc1 (centres undefined),?
CC(=O)Oc1c(C)c(C)c2c(c1C)CCC(C)(CCCC(C)CCCC(C)CCCC(C)C)O2 (centres undefined),4%&-16%&6%&-1%
C=CCN([C@H](C(=O)OC)C(C)C)S(=O)(=O)CCNCc1ccccc1,-11%
CCOc1ccc(NC(=O)CN(c2ccc(C)cc2)S(=O)(=O)c2c(C)nn(C)c2C)cc1,-3%
COc1cc(/C=C\c2ccc(OC)cc2OC)cc(OC)c1,5%
CCOC(=O)C1(Cc2cccc(Cl)c2)CCCN(C(=O)c2cc(C)[nH]n2)C1 (centres undefined),-5%
COC(C[C@H]1O[C@H]1C(=O)[C@H](C)OCc1ccccc1)OC,?
COc1ccccc1-n1cnc2cc(C(=O)N3CCOCC3)ccc21,-6%
Cc1ccc(C)c(N(C)C(=O)c2cn(C)c(=O)c3ccccc23)c1,-19%
CC1CN(CCOCCOc2ccccc2-c2ccccc2)CC(C)O1 (centres undefined),-11%
C=CCNC(=O)c1ccc(Sc2ccc(C)cc2)c([N+](=O)[O-])c1,17%
CCOC(=O)C1(S(=O)(=O)c2ccc(Cl)cc2)CCN(Cc2ccc(C)cc2)CC1,-25%
CC(C)(C)c1ccc(OCC(=O)OCCNC(=O)c2cccnc2)cc1,1%

New compounds follow.
mol,VDR inhibitor
Cc1ccc(NC(=O)CCC(=O)NNC(=O)C(C)(C)C)c(C)c1,-6%
CCCCOc1ccc(OCCCC)c2c1NC1(N2)C(=O)N(C(C)=O)c2ccccc21,6%
S=C(Nc1ccc(Br)cc1Cl)N1CCN(c2ccccn2)CC1,-3%
Cc1cc2c(c(=O)n1Cc1ccc3c(c1)OCO3)C(c1cccnc1)C(C#N)=C(N)O2 (centres undefined),-11%
CC(NC(=O)COC(=O)CCC(=O)c1ccc(Cl)cc1)c1ccccc1 (centres undefined),-4%
O=C(CSc1nc2ccccc2[nH]1)Nc1c(F)cccc1F,-20%
Cc1cccn2c(=O)c3cc(C(=O)NCC4CCCO4)c(=N)n(CCc4ccccc4)c3nc12 (centres undefined),3%
CCOC(=O)Cn1c(=O)oc2cc(S(=O)(=O)N3CCn4c3nc3ccccc34)ccc21,-15%
Cn1nnnc1SCC(=O)NCc1ccco1,11%
CN1CCC(=C2c3ccccc3Sc3ccccc32)CC1,-19%&-13%&-1%
CCC(C)NS(=O)(=O)c1ccc(OCC(=O)N2CCCCC2)cc1 (centres undefined),2%
O=S(=O)(Cc1ccccc1)NCC1CCCN(Cc2ccc3nonc3c2)C1 (centres undefined),16%
O=C(Cc1ccccc1)NCc1ccccn1,-8%
O=C1OCCC1Sc1nnc(-c2ccco2)o1 (centres undefined),-12%
Cc1nc2ccc([N+](=O)[O-])cc2s1,-10%
CC(=O)c1ccc(N(CC(=O)NC2CCS(=O)(=O)C2)S(=O)(=O)c2ccc(Cl)cc2)cc1 (centres undefined),-16%
Cc1cccc(C(=O)NC(=S)N2CCc3ccccc3C2)c1,?
O=C1/C(=C/c2cccc([N+](=O)[O-])c2)CCc2ccccc21,?
CC(C)CNS(=O)(=O)c1ccc(S(=O)(=O)N2CCN(CCC#N)CC2)cc1,-6%
Cc1cccc(C(C)C)c1NC(=O)c1ccc2c(c1)CCCN2S(C)(=O)=O,4%

In the list so far, 7 have a furan ring, fused or not.
mol,VDR inhibitor
CSc1ccc(/C=C(/NC(=O)c2ccco2)C(=O)N2CCOCC2)cc1,-7%
C/C(=N\NC(=O)C1COc2ccccc2O1)c1cc2ccccc2o1 (centres undefined),5%
CCn1c(SCc2ccc(C(=O)OC)o2)nnc1-c1c[nH]c2ccccc12,15%
Cc1ccc(CN(C)C(=O)c2cccc(S(=O)(=O)N3CCc4ccccc4C3)c2)o1,-28%
COc1ccc(CNC(=O)C[C@H]2C[C@H](C(=O)N3CCCCC3)[C@@]3(CCc4ccccc4)c4[nH]c5cc(-c6ccco6)ccc5c4CCN3C2=O)cc1OC,89µM*
Cn1nnnc1SCC(=O)NCc1ccco1,11%
O=C1OCCC1Sc1nnc(-c2ccco2)o1 (centres undefined),-12%

Next section:
mol,VDR inhibitor
COC(=O)C1CCN(C(=O)Cc2c(OC)ccc3cc(Br)ccc23)CC1,-11%
CCC(CC)C(=O)Nc1cccc(-c2ccc3nncn3n2)c1,18%
CCOc1cc(/C=C2\NC(=O)NC2=O)ccc1OC(C)C(=O)O (centres undefined),-2%
COC(=O)c1cc(-c2ccc(Br)cc2)on1,6%
COc1ccccc1NC(=O)Nc1nnc(CC(=O)Nc2ccccc2C)s1,-1%
CCN(CC)C(=O)CSc1nnc(SCc2ccc(Cl)cc2)s1,4%
O=C(CCC(=O)c1cccs1)OCC(=O)N1CCN(C(=O)c2ccco2)CC1,-12%
COCCn1c(=S)[nH]c2sc3c(c2c1=O)CCC(C)C3 (centres undefined),52%[activator]
Cc1cccc(N2CCN(C(=O)CCC(=O)N3CC(C)Oc4ccc(C)cc43)CC2C)c1 (centres undefined),18%
CCOC(=O)c1cc(C(=O)OCC)c(=O)[nH]c1C,13%
C/C(=N\NC(=O)Cc1cccn1C)c1ccc([N+](=O)[O-])cc1,3%
Cc1ccc(C(=O)Nc2ccc(C(=O)N/N=C/c3ccccn3)cc2)cc1,-4%
CC(NCc1ccc(S(N)(=O)=O)cc1)C(=O)Nc1cccc(Cl)c1 (centres undefined),8%
COC(=O)c1c(C)n(-c2ccccc2)c2ccc(O)cc12,-13%
COc1ccc(CC(=O)NCC2CCCN(Cc3cc(OC)cc(OC)c3)C2)cc1 (centres undefined),-8%
Cc1ccccc1CNC(=O)CCSCc1cnn(-c2ccccc2)c1-n1cccc1,7%
S=C(NC12CC3CC(CC(C3)C1)C2)N1CCCC1,-19%
Cc1c(C(=O)NC(C)c2ccccn2)oc2c(Cl)cccc12 (centres undefined),5%
CCOc1ccc(C2=CSC3=NCCN23)cc1[N+](=O)[O-],-25%
COc1ccc(NC(=O)c2ccc3ccccc3c2)cc1NS(=O)(=O)c1ccc(F)cc1,-3%

Carrying on.
| SMILES | VDR inhibitor |
| --- | --- |
| COc1ccc(OC)c(N(CC(=O)NCCSCc2ccc(C)cc2)S(C)(=O)=O)c1 | -7% |
| COc1ccc(CCNC(=O)CCc2c(C)nc3cc(-c4ccc(Cl)cc4)nn3c2C)c(OC)c1 | 1% |
| CC(C)OC(=O)c1cc(C(=O)c2cc(Cl)ccc2O)coc1=N | -4% |
| CCC(CC)C(=O)Nc1ccc(C)cc1O | 10% |
| COC1(C)CCC2OC2(C)CCC2C1CC2(C)C (centres undefined) | 8% |
| Cc1nc2c3ccccc3nc(NNC(=O)CCC(=O)NCCN3CCN(c4ccccc4)CC3)n2n1 | -9% |
| CCC(Oc1ccccc1)C(=O)N(C)CC(=O)N(CC(C)C)c1c(N)n(CC(C)C)c(=O)[nH]c1=O (centres undefined) | 4% |
| Cc1ccc(NC(=O)CN(C)C(=O)/C=C/c2cccs2)cc1 | 13% |
| COc1ccccc1NC(=S)N1CCC(NC(=O)C23CC4CC(CC(C4)C2)C3)CC1 | -16% |
| O=C(NCCc1ccc(C(F)(F)F)cc1)C1CCC(=O)N(CCCc2ccccc2)C1 (centres undefined) | -16% |
| O=C(/C=C/c1ccccc1)N/C(=C/c1ccccc1)C(=O)Nc1ccccc1O | 5% |
| Cc1ccc(-n2nnnc2SCC(=O)NC2CCS(=O)(=O)C2)c(C)c1 (centres undefined) | 10% |
| Cc1cccc(NC(=O)CCS(=O)(=O)c2ccccc2)c1 | -23% |
| O=C1CCN(c2ncccc2[N+](=O)[O-])CC1 | 14% |
| CCn1ccc2c(OCC(=O)Nc3ccc(OC)cc3OC)cccc2c1=O | 1% |
| CSCCC(NC(=O)c1ccccc1Cl)C(=O)N1CCN(c2ccccn2)CC1 (centres undefined) | -3% |
| O=C(CSc1nc2ccccc2c(=O)n1Cc1ccc(C(=O)NC2CC2)cc1)NCc1ccco1 | 23% |
| O=C(O)CSc1cc(NS(=O)(=O)c2ccc(Cl)cc2)c2ccccc2c1O | 3.5µM* |
| O=C(c1cnc(Cl)c(Cl)c1)N1CCN(S(=O)(=O)c2ccc3ccccc3c2)CC1 | -21% |
| O=C(NCCCO)/C(=C\C=C\c1ccccc1)NC(=O)c1ccccc1Cl | -2% |
| O=C(COc1ccccc1Br)NC(=O)NC1CCCC1 | 0% |
| CS(=O)(=O)N(Cc1ccc(Cl)cc1)c1ccc(C(=O)NCc2ccccn2)cc1 | 15% |
| COc1ccc(CC(=O)n2[nH]c(=O)cc(C)c2=O)cc1OC | ? |
| CCc1nnc(NC(=O)C(C)N2C(=O)C3C4C=CC(C4)C3C2=O)s1 (centres undefined) | -4% |
| COc1ccc(C(C)(C)NC(=O)C2CCC(=O)N(CCCN3CCCC3=O)C2)cc1 (centres undefined) | 9% |

Part of the list above, set out differently:
O=C(O)CSc1cc(NS(=O)(=O)c2ccc(Cl)cc2)c2ccccc2c1O
  VDR inhibitor: 3.5µM*

O=C(c1cnc(Cl)c(Cl)c1)N1CCN(S(=O)(=O)c2ccc3ccccc3c2)CC1
  VDR inhibitor: -21%
